Arbovirus inh: antivirals against arbovirus infection; arbovirus infection cell-based antiviral screen; 200,000 compounds, 0.37% hits; inhibition, % at 10 µM; AID 1251;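 active = inhibition from about 30%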;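 also: bluetongue infection of BSR cells; cell survival read as ATP light after 72 h; 0% = infected wells without compound and 100% = uninfected wells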
YopH PTP inh: YopH (Yersinia) phosphatase inhibition; inhibition, %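 (about 10 µM by stock and volumes)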; 140,000 compounds, 0.16% hits; fluorescence Ex485/Em525;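 active = inhibition of 50% or more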;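 also: controls were vehicle for no effect and minimum signal wells for full effect; inactives centre near -20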
RecA splice inh: blocks M. tuberculosis RecA intein splicing. P9WHJ3. cell-free RecA intein splicing, fluorescence. inhibition, %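 (about 9 µM by stock and volumes)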. 290,000 compounds, 0.75% hits; in the data active = inhibition above about 30%; inconclusive = no clear call, values can overlap the other calls;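 also: 0% = vehicle wells and 100% = reference inhibitor control wells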
Target sequence (P9WHJ3 whole entry, looked up, canonical isoform): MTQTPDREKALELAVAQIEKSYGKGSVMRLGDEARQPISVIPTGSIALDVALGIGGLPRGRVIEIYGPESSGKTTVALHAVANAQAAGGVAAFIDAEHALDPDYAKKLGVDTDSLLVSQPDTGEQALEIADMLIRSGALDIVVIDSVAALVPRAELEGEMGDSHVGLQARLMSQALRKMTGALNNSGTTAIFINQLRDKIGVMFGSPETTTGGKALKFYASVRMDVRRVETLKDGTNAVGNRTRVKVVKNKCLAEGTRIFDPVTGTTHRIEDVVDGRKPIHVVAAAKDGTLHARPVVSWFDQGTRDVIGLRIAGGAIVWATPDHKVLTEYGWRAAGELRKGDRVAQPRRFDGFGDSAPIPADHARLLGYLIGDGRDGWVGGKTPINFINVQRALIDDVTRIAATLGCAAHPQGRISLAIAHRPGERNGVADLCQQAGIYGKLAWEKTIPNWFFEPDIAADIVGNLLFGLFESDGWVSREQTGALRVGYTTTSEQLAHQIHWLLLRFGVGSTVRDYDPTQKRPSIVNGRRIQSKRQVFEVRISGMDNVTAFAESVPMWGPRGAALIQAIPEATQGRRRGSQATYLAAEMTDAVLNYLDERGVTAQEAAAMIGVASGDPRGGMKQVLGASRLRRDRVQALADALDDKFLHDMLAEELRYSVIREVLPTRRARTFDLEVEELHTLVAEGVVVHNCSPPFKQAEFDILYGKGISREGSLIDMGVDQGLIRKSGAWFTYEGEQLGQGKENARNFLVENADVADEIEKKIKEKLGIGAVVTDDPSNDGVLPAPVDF
Mtb H37Rv: M. tuberculosis H37Rv growth inhibitors, H37Rv strain (AID 1626). 220,000 compounds, 0.95% hits. M. tuberculosis H37Rv growth inhibition; higher % means a stronger effect. one-dose inhibition, % at 10 µM; IC50 in µM for titrated hits;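 active = confirmed in a dose series; inconclusive = inhibition above 80% but not taken into the dose series; inactive = below 80% or under 30% at every dose of the series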;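 also: bacteria incubated seven days before Alamar blue readout; 0% = bacteria only wells and 100% = bacteria with antibiotic wells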
Mtb betalactam: beta-lactam sensitization of Mtb H37Rv; M. tuberculosis H37Rv growth with meropenem, percent inhibition; hits of this screen are not shown here; inhibition, % at 25 µM; 330,000 compounds, 0.27% hits; AID 434955;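 active = about 74% or more and at least 40 points above the plate without the antibiotic, then above 30% in a dose series; inconclusive = first-round hits that could not be retested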;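 also: growth measured after seven days incubation then overnight dye step; 0% = bacteria only wells and 100% = bacteria with antibiotic; twin plates without the antibiotic show which effects depend on it; some results filed as inactive read as strong as hits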
Arbovirus inh repeat: further read-out of Arbovirus inh, marked with its call; inhibition, %; measured here: 10K subset replicate screen; many hits read low in the repeat;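 first of two repeat runs on a subset; 0% = infected and 100% = uninfected wells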
Starred values were filed as active, the others as inactive; & = joins results of further samples.

The opening 2 entries, ahead of the listing:
Screening Cc1ccc(C(=O)NNC(=S)NC(=O)c2ccco2)cc1 returned Arbovirus inh -19, RecA splice inh -6.7, Mtb H37Rv inconclusive and Mtb betalactam 93.
For CC/C(=N\NS(=O)(=O)c1ccc(C)cc1)c1ccco1 the results were RecA splice inh -1.6 and Mtb betalactam 1.

The listing, from the first entry:
Screening Cc1ccc(C(=O)NNC(=S)NC(=O)c2ccco2)cc1 returned Arbovirus inh -19, RecA splice inh -6.7, Mtb H37Rv inconclusive and Mtb betalactam 93.
For CC/C(=N\NS(=O)(=O)c1ccc(C)cc1)c1ccco1 the results were RecA splice inh -1.6 and Mtb betalactam 1.
`COc1cccc(C(c2c(C)[nH]n(-c3ccccc3)c2=O)c2c(C)[nH]n(-c3ccccc3)c2=O)c1OC` gave Arbovirus inh -13, YopH PTP inh 27, RecA splice inh 94*, Mtb H37Rv 3% and Mtb betalactam 6.
For Cn1c(C(=O)OC(C(=O)NC2CCCCC2)c2ccncc2)cc2sccc21 (stereo not drawn) the results were Arbovirus inh -14, YopH PTP inh -31, RecA splice inh 2.6, Mtb H37Rv 13% and Mtb betalactam 20.
Screening O=C(CCCSc1nc2ccccc2[nH]1)N1CCN(c2ccccc2)CC1 returned Arbovirus inh 5, YopH PTP inh -24, RecA splice inh -5.2, Mtb H37Rv -16% and Mtb betalactam 5.
Screening O=[N+]([O-])c1ccc(NC(=S)NCCc2ccc(F)cc2)cc1 returned Arbovirus inh -29, YopH PTP inh -17, RecA splice inh 8.8, Mtb H37Rv inconclusive and Mtb betalactam 59.
For CCCNC(=O)NC(C)C12CC3CC(CC(C3)C1)C2 (stereo not drawn) the results were Arbovirus inh 12, YopH PTP inh 8, Mtb H37Rv 7% and Mtb betalactam 9.
COCCN(CCOC)c1nc(-c2ccc(C)cc2)nc2ccccc12 was read as RecA splice inh 4.3 and Mtb betalactam 82.
For COc1ccccc1NC(=O)C(=O)N1N=C(C(C)C)CC1(O)C(F)(F)F (stereo not drawn) the results were Arbovirus inh 21, YopH PTP inh -9, RecA splice inh -5.8, Mtb H37Rv -3% and Mtb betalactam 1.
CCOP(=O)(OCC)c1nc(-c2ccccc2)oc1NCc1ccccc1 was read as Arbovirus inh -6, YopH PTP inh -36, RecA splice inh 8.6, Mtb H37Rv 0% and Mtb betalactam 10.
For C(=N\Nc1nc(N2CCCC2)nc(N2CCCC2)n1)/c1ccncc1 the results were Arbovirus inh 3, RecA splice inh -0.6, Mtb H37Rv -3% and Mtb betalactam 0.
CCOC(=O)N1CCN(CC(O)COc2ccc3c(c2)CCC3)CC1 (stereo not drawn) was read as RecA splice inh -2.2 and Mtb betalactam 2.
CCCCN1C(=O)c2cccc3cc(O)cc(c23)C1=O was read as RecA splice inh -10 and Mtb betalactam -9.
For CN(CC(=O)Nc1cccc(F)c1)C(=O)CC1CCCCC1 the results were RecA splice inh 0.6 and Mtb betalactam -4.
`O=C(Nc1cccs1)Nc1ccccc1Br` gave Arbovirus inh 8, RecA splice inh 3.2, Mtb H37Rv 20% and Mtb betalactam 34.
COc1ccc(C(=O)Nc2ccc(C(=O)O)cc2NC(=O)c2ccc(OC)cc2)cc1 was read as RecA splice inh -0.8 and Mtb betalactam 7.
For Nc1nnc(CC(=O)NCc2ccccc2)s1 the results were Arbovirus inh 1, YopH PTP inh -15, RecA splice inh 0.6, Mtb H37Rv -2% and Mtb betalactam -12.
Screening O=C1c2oc3ccccc3c(=O)c2C(c2cccc(Br)c2)N1Cc1ccco1 (stereo not drawn) returned Arbovirus inh 8, YopH PTP inh -19, RecA splice inh 0.0, Mtb H37Rv 1% and Mtb betalactam 2.
For CCc1cccc(NC(=O)CCCSc2nc3ccccc3[nH]2)c1 the results were Arbovirus inh -21, YopH PTP inh -55, RecA splice inh 3.1, Mtb H37Rv 38% and Mtb betalactam 24.
`Cc1ccc(NC(=O)c2ccc(CSc3ncnc4nc[nH]c34)cc2)c(C)c1` gave Arbovirus inh -17, YopH PTP inh -32, RecA splice inh -1.0, Mtb H37Rv 38% and Mtb betalactam 94.
`CCn1nnnc1SCC(=O)NNC(=O)C1CCCCC1` gave Arbovirus inh 1, YopH PTP inh -43, RecA splice inh -0.9, Mtb H37Rv -5% and Mtb betalactam 5.
`Clc1ccccc1C1=NCc2nncn2-c2sc(Br)cc21` gave RecA splice inh -0.3 and Mtb betalactam -2.
For O=C(CN1CCOCC1)NC1C2CC3CC(C2)CC1C3 (stereo not drawn) the results were Arbovirus inh 0, YopH PTP inh -25, RecA splice inh -0.2, Mtb H37Rv 6% and Mtb betalactam -3.
CCc1nnc(NC(=O)c2ccc(-c3ccc([N+](=O)[O-])cc3Cl)o2)s1 was read as Arbovirus inh -7, RecA splice inh -3.0, Mtb H37Rv -10% and Mtb betalactam 4.
COCCn1c(SCC(=O)NCCc2ccccc2)nnc1-c1ccco1 was read as Arbovirus inh 2, YopH PTP inh -44, RecA splice inh 0.3, Mtb H37Rv -10% and Mtb betalactam 1.
Screening N=c1c2c(-c3ccccc3)c(-c3ccccc3)n(Cc3ccco3)c2ncn1Cc1ccco1 returned Arbovirus inh -34, YopH PTP inh -18, RecA splice inh 47*, Mtb H37Rv inconclusive and Mtb betalactam 100.
For Fc1ccc(-c2nc3c(-c4ccccc4)cnn3cc2CCN2CCOCC2)cc1 the results were Arbovirus inh 6, RecA splice inh 13, Mtb H37Rv 1% and Mtb betalactam 2.
FC(F)(F)c1cccc(Oc2cc(C(F)(F)F)nc(-c3ccccn3)n2)c1 was read as Arbovirus inh 4, YopH PTP inh -29, RecA splice inh 0.9, Mtb H37Rv 18% and Mtb betalactam -11.
Cc1ccc(C(=O)COC(=O)c2cnccn2)cc1[N+](=O)[O-] was read as Arbovirus inh 2, RecA splice inh 0.5, Mtb H37Rv 60% and Mtb betalactam -5.
Screening S=C(Nc1ccc2c(c1)OCO2)N1CCCC1 returned Arbovirus inh 5, Mtb H37Rv 1% and Mtb betalactam 0.
`Cc1nc2sc(-c3ccccc3)cc2c(=O)n1N` gave RecA splice inh 0.4, Mtb H37Rv -7% and Mtb betalactam -9.
`COc1cc(/C=C2/SC(=S)N(CC(=O)Nc3cccnc3)C2=O)cc(OC)c1OC` gave Arbovirus inh 4, YopH PTP inh -5, RecA splice inh -8.8, Mtb H37Rv 5% and Mtb betalactam 1.
COc1ccc(NC(=S)N2CCCC(c3nc4ccc(C)cc4[nH]3)C2)cc1 (stereo not drawn) was read as Arbovirus inh -1, RecA splice inh 0.4, Mtb H37Rv 0% and Mtb betalactam -1.
Screening O=C(Cc1csc(-c2ccccc2)n1)Nc1ccc(C(F)(F)F)cc1 returned Arbovirus inh 13, YopH PTP inh -17, RecA splice inh -4.1, Mtb H37Rv 1% and Mtb betalactam 2.
Cc1c(CC(=O)N2CCN(C(=O)C3COc4ccccc4O3)CC2)c(=O)oc2cc(O)c(Cl)cc12 (stereo not drawn) was read as RecA splice inh -217 and Mtb betalactam 1.
Screening COc1ccc(CCCC(=O)NC2CCCCC2)cc1 returned Arbovirus inh -4, YopH PTP inh -32, RecA splice inh -2.0, Mtb H37Rv 0% and Mtb betalactam -4.
Screening CSCCC(NC(=O)c1ccc([N+](=O)[O-])cc1Cl)C(=O)OCC(=O)N(C)C (stereo not drawn) returned Arbovirus inh -1, YopH PTP inh -3, RecA splice inh -1.5, Mtb H37Rv -1% and Mtb betalactam 8.
CC(C)(C)C(=O)C(Cl)C(=O)Nc1ccccc1 (stereo not drawn) was read as RecA splice inh 23, Mtb H37Rv -6% and Mtb betalactam -2.
Screening CCOC(=O)Cc1csc(NC(=O)CSc2nc(=O)[nH]c3c2CCCC3)n1 returned RecA splice inh 0.9 and Mtb betalactam -2.
`CC(C)(C)c1cc[n+](-c2[nH]c(=O)sc2/C=N/N=C(\[O-])c2ccccc2)cc1` gave RecA splice inh 1.2 and Mtb betalactam 4.

Ordered by formula weight (lowest first): part of the list above.
Screening COc1ccc(CCCC(=O)NC2CCCCC2)cc1 returned Arbovirus inh -4, YopH PTP inh -32, RecA splice inh -2.0, Mtb H37Rv 0% and Mtb betalactam -4.
Cc1ccc(C(=O)COC(=O)c2cnccn2)cc1[N+](=O)[O-] was read as Arbovirus inh 2, RecA splice inh 0.5, Mtb H37Rv 60% and Mtb betalactam -5.
CCc1nnc(NC(=O)c2ccc(-c3ccc([N+](=O)[O-])cc3Cl)o2)s1 was read as Arbovirus inh -7, RecA splice inh -3.0, Mtb H37Rv -10% and Mtb betalactam 4.

(cont.)
For COc1ccc(-n2c(COc3ccc4ccccc4c3)nnc2SCC(=O)NCc2ccco2)cc1 the results were Arbovirus inh -32, YopH PTP inh 10, RecA splice inh 16, Mtb H37Rv 1% and Mtb betalactam 69.
Screening COC(=O)c1ccc(C(=O)OC)c(-n2c(=O)c3ccccc3c3ccccc3c2=O)c1 returned Arbovirus inh -2, YopH PTP inh -28, RecA splice inh 40*, Mtb H37Rv -8% and Mtb betalactam 5.
For CCCC(=O)n1nc(-c2ccccc2)nc1N the results were Arbovirus inh -4, YopH PTP inh 6, RecA splice inh 1.1, Mtb H37Rv -10% and Mtb betalactam 0.
Screening Cc1ccc(C2CC(c3cccc(NS(C)(=O)=O)c3)=NN2S(C)(=O)=O)cc1 (stereo not drawn) returned Arbovirus inh -7, RecA splice inh -1.3, Mtb H37Rv 1% and Mtb betalactam -5.
`O=C(O)c1ccc2oc(SCC(=O)N3CCCCC3)nc2c1` gave Arbovirus inh 7, YopH PTP inh 9, RecA splice inh -2.6, Mtb H37Rv -6% and Mtb betalactam -5.
Screening CCOc1ccccc1NC(=O)C1CCN(c2ccc(S(=O)(=O)N3CCCC3)cc2)CC1 returned Arbovirus inh -8, YopH PTP inh 1, RecA splice inh 0.2, Mtb H37Rv -6% and Mtb betalactam 2.
Screening CCOc1ccc(N2C(=O)C3C4C=CC(CC4)C3C2=O)c([N+](=O)[O-])c1 (stereo not drawn) returned Arbovirus inh -7, YopH PTP inh -18, RecA splice inh -2.1, Mtb H37Rv 5% and Mtb betalactam 0.
Screening CCSc1nnc(Cc2cc(=O)[nH]c(=O)[nH]2)n1-c1ccc(F)cc1 returned Arbovirus inh 6, YopH PTP inh -30, RecA splice inh 2.2, Mtb H37Rv 2%, Mtb betalactam -6 and Arbovirus inh repeat 0.
`CCN1CCCC1CN(Cc1cc2ccc(C)c(C)c2[nH]c1=O)C(=O)Nc1ccccc1OC` (stereo not drawn) gave Arbovirus inh 25, YopH PTP inh -20, RecA splice inh 0.5, Mtb H37Rv 6% and Mtb betalactam -8.
Screening Cc1ccccc1NC(=O)Cc1nnc(SCC(=O)NC2CCCC2)n1C returned RecA splice inh 2.1 and Mtb betalactam -2.
Screening O=C(Nc1ccccc1)OCCCCCOC(=O)Nc1ccccc1 returned RecA splice inh 1.9 and Mtb betalactam 1.
`O=c1oc(-c2ccccc2)nc2ccsc12` gave Arbovirus inh 10, YopH PTP inh 4, RecA splice inh 16, Mtb H37Rv inconclusive and Mtb betalactam 87.
Nc1cc(N)nc(SCC(=O)Nc2ccc3c(c2)OCCCO3)n1 was read as Arbovirus inh -2, YopH PTP inh 3, RecA splice inh -1.1, Mtb H37Rv -14% and Mtb betalactam -2.
`COc1ccc(NC2CCCN(C(=O)CCOc3ccccc3)C2)cc1` (stereo not drawn) gave RecA splice inh -1.0 and Mtb betalactam 6.
Screening Cc1nc2c(-c3ccccc3)c(C)nn2c(C)c1CCC(=O)N1CCC2(CC1)OCCO2 returned Arbovirus inh 7, YopH PTP inh -31, RecA splice inh -0.9, Mtb H37Rv 3% and Mtb betalactam -8.
For CN(C(=O)c1ccncc1)C1CCS(=O)(=O)C1 (stereo not drawn) the results were Arbovirus inh 9, YopH PTP inh -41, RecA splice inh 0.1, Mtb H37Rv -1% and Mtb betalactam 3.
`Cc1ccc(N(CC(O)Cn2c3ccccc3c3ccccc32)S(C)(=O)=O)cc1` (stereo not drawn) gave Arbovirus inh -37, YopH PTP inh -15, RecA splice inh 7.1, Mtb H37Rv 9% and Mtb betalactam 8.
`COc1ccc(C(=O)Oc2ccc3ccc(=O)oc3c2)cc1` gave RecA splice inh -5.4 and Mtb betalactam 34.
`CN(C)S(=O)(=O)c1ccc(-c2csnn2)s1` gave Arbovirus inh 5, YopH PTP inh 7, RecA splice inh -1.5, Mtb H37Rv 2% and Mtb betalactam -8.
Screening O=C(O)c1cccc(N2C(=O)c3cccc(Oc4ccc(Cl)cc4)c3C2=O)c1 returned Arbovirus inh -6, YopH PTP inh -38, RecA splice inh -0.3, Mtb H37Rv -3% and Mtb betalactam -7.
`O=C(OCCN1CCOCC1)c1cccnc1` gave Arbovirus inh 16&0, YopH PTP inh -48&-30, RecA splice inh -0.1&-3.0, Mtb H37Rv -4%&-2% and Mtb betalactam -3&2.
O=C(Nc1nncs1)C1COc2ccccc2O1 (stereo not drawn) was read as Arbovirus inh 0, YopH PTP inh -37, RecA splice inh 0.2, Mtb H37Rv 3% and Mtb betalactam -8.
OCc1cn(-c2ccc(Cl)cc2)nn1 was read as Arbovirus inh 11, RecA splice inh 7.5, Mtb H37Rv 2% and Mtb betalactam -6.

These rows are one share of the data (hit frequency here may not be typical).
